Lassa entry inh: Lassa virus entry inhibition; Lassa virus pseudotype entry inhibition, cell reporter; control for the full effect not named in the record; Potency, µM (doses to about 37.9 µM), inactives show at the top dose activity change, negative = inhibition, hits mostly inhibitors; 300,000 tested, 1.2% active; AID 540256; active means well fitted inhibition curve with a large enough effect; inconclusive means small, poorly fitted or top-dose-only effect, or effect the other way; inactive means flat fitted curve, though single readings scatter; tested in HEK293 cells; also: % is scaled to controls: 0 for no effect and ±100 for the full control effect; nearly all actives have a fitted effect of over 50% in size; luciferase read-out
Cruzain inh Det: blocks cruzain activity in presence of Triton detergent. P25779. purified cruzain, Z-FR-AMC fluorescence, 0.01% Triton. Potency, µM, for inactives: max response, negative = inhibition, actives largely listed as inhibitors. 200,000 tested, 0.43% active; active = well fitted curve in the direction sought with a large enough effect; inconclusive = small, poorly fitted or top-dose-only effect, or another doubt; inactive = no such curve, though single readings can be large; an effect the other way counts as inactive or inconclusive;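 also: plate controls were neutral wells for no effect and buffer without enzyme for full effect; nearly all actives have a fitted effect of over 40% in size; top concentration of the series not given in the record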
Target sequence (P25779 123-467 limits assumed): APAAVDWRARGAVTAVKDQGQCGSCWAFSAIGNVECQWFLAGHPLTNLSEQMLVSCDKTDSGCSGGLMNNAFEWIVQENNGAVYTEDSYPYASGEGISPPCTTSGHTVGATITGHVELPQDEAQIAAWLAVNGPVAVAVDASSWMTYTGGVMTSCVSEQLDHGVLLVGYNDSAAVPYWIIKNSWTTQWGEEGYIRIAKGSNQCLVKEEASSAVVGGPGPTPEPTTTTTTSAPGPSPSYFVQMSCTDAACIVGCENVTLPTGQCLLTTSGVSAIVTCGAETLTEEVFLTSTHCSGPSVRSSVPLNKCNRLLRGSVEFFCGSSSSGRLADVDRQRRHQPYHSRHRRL
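Z-FR-AMC hydrolysis (2 uM substrate) by cruzain (1.5 nM) monitored kinetically at ex 360/em 450 nm after 15 min room-temperature compound exposure; 0.01% Triton X-100, pH 5.5, 5 mM DTT.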
SARS PLP yeast: SARS-CoV PLP inhibition in yeast; Potency, µM (titrated, usually from 32.9 µM), for the others: at the top dose activity, positive = growth rescue; AID 485353; S. cerevisiae expressing SARS-CoV PLpro, growth rescue; control for the full effect not named in the record; 330,000 tested, 0.19% active; also: 0% is about no effect; nearly all actives have a fitted effect of over 55% in size; growth read by luminescence after 48 h
StopGo reporter: FMDV 2A StopGo reporter, luciferase signal; human cells with a luciferase reporter of 2A StopGo recoding; control for the full effect not named in the record; Potency, µM (doses to about 57.9 µM), for the others: at the highest dose signal change, negative = less light; 410,000 tested, 1.2% active; active = well fitted falling curve with a large enough effect; inconclusive = small, poorly fitted or top-dose-only effect; inactive = no such curve, though single readings can be large or run the other way; tested in HEK293T cells; also: % is scaled to controls: 0 for no effect and ±100 for the full control effect; nearly all actives have a fitted effect of over 45% in size; luciferase light after 4 h
RE007 growth inh: less growth of the S. pombe RE007 Vpr strain. 360,000 tested, 0.21% active. Potency, µM (highest dose often 92.2 µM), for inactives: at the highest dose activity change, negative = less growth. AID 651644. S. pombe RE007 Vpr strain, BacTiter-Glo ATP luminescence, 24 h; control for the full effect not named in the record; active = well fitted falling curve with a large enough effect; inconclusive = small, poorly fitted or top-dose-only effect; inactive = no such curve, though single readings can be large or run the other way;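 also: % is scaled to controls: 0 for no effect and ±100 for the full control effect; nearly all actives have a fitted effect of over 50% in size; the assay follows cell death caused by Vpr and the record does not say whether a fall means rescue or toxicity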
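Fission yeast strain RE007, carrying one chromosomally integrated HIV-1 vpr copy, was seeded at OD 0.01 in PMG+AL medium with 23 nL pinned compound. After 24 h at 30 °C and 99% humidity, viability was read by BacTiter-Glo luminescence.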
NS1 inh: inhibitors of influenza NS1 protein function; S. cerevisiae slowed by influenza A NS1, growth recovery by OD600; Potency, µM (highest dose often 46.1 µM), inactives show at the top dose activity, positive = more growth; 270,000 tested, 0.4% active; also: actives are rising curves; nearly all actives have a fitted effect of over 50% in size
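Read-out: OD600 growth recovery of NS1-expressing budding yeast. Cells grown overnight at 30C in -URA glucose medium, washed, resuspended and diluted 1:100 in 2% galactose assay medium, pH 6.0. Same strain lacking NS1 served as positive control.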
Marburg entry inh: blocks Marburg virus binding to or entry into cells | Marburg virus pseudotyped entry inhibition, cell reporter; control for the full effect not named in the record; about a third of the inactives were read at about 46 µM | Potency, µM (series often up to 37.8 µM), without a hit: at the highest dose activity change, negative = inhibition, actives largely listed as inhibitors | 300,000 tested, 1.8% active | AID 540276; active = well fitted inhibition curve with a large enough effect; inconclusive = small, poorly fitted or top-dose-only effect, or effect the other way; inactive = flat fitted curve, though single readings scatter; tested in HEK293 cells; about a fifth of its hits are not listed in these tables; also: % is scaled to controls: 0 for no effect and ±100 for the full control effect; luciferase read-out
Cruzain inh noDet: cruzain (T. cruzi) inhibition without detergent. P25779. purified cruzain, Z-FR-AMC fluorescence, no detergent. Potency, µM, for the others: max response, negative = inhibition, actives largely listed as inhibitors. 200,000 tested, 2.3% active; active = well fitted curve in the direction sought with a large enough effect; inconclusive = small, poorly fitted or top-dose-only effect, or another doubt; inactive = no such curve, though single readings can be large; an effect the other way counts as inactive or inconclusive;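 also: plate controls were enzyme without inhibitor for no effect and buffer without enzyme for full effect; nearly all actives have a fitted effect of over 40% in size; top concentration of the series not given in the record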
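Detergent-free condition (0.00005% Triton X-100) in acetate buffer pH 5.5 with DTT. 1.5 nM enzyme and compound were pre-mixed 15 min, then 2 uM Z-FR-AMC substrate added; reaction progress from fluorescence change between first and third reads (60 s).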
* marks the source's active call; other numbers are inactive results; u = inconclusive; x = not tested or not shown; & = joins results of further samples; [ ] = dose if it differs, or a comment. Unless noted, calls follow the shape of the dose curve; as a rule, active means well fitted rising curve with a large enough effect; inconclusive means small, poorly fitted or top-dose-only effect; inactive means no such curve, though single readings can be large or run the other way. Potency is read from the fitted curve at half-maximal effect.

Under each structure: Lassa entry inh | Cruzain inh Det | SARS PLP yeast | StopGo reporter | RE007 growth inh | NS1 inh | Marburg entry inh | Cruzain inh noDet
- CC(=O)C1=C(O)C(=O)N(c2ccc(Br)cn2)C1c1ccc(F)cc1 (configuration not stated)
→ 30% | x | 0% | -16% | 6% | 3% | 17%[46.1 µM] | x
- CC(/C=N/n1c(-c2ccc(Cl)cc2)n[nH]c1=S)=C\c1ccco1
→ -27% | -4.9% | -15% | 0% | x | 15% | -22% | u
- O=C(O)c1ccc(Cl)c(S(=O)(=O)NCC2CCCO2)c1 (configuration not stated)
→ 6% | -5.4% | 11% | 18% | 0% | 2% | -3% | -8%
- Cn1ncc2c(Nc3cccc(F)c3)ncnc21
→ -2%[46.1 µM] | 0.2% | x | -2% | x | x | x | -8%
- O=C(/C=N/O)Nc1ccc2sc3ccccc3c2c1
→ 9% | x | -7% | 27% | 37% | -4% | 10%[46.1 µM] | x
- Cc1cccc(C)c1N=Nc1c(C)cc(O)cc1C
→ 0% | x | -25% | -10% | 25µM* | -155% | 4% | x
- CCc1cccc(-n2nnc(S(=O)(=O)c3ccc(OC)cc3)c2C)c1
→ u | -3.2% | x | u | x | x | u | 9%
- CCOc1ccc(/C=N/NC(=O)Nc2ccccc2)cc1
→ u | x | 0% | 56%[activator] | 1% | -4% | u | x
- CC1CC(C)(C)NC(=S)N1CCCC(=O)Nc1ccc(Br)cc1 (configuration not stated)
→ -11% | x | 5% | -16% | 7% | x | u | x
- CCOC(=O)N1CCN(CCC(=O)Nc2cccc(Br)c2)CC1
→ -3%&1% | -0.2%&0.9% | -2%&5% | u | 1%&-5% | -10%&-8% | -4%&17% | 8%&3%
- COc1ccc(CCCc2nnc(SCC(=O)Nc3ccc(C)cc3)o2)cc1C
→ 14%[46.1 µM] | -1.7% | x | -10% | x | x | x | -7%
- CCOc1ccc2c(c1)c(=O)c(C(=O)c1ccc(CC)cc1)cn2CC(=O)Nc1cccc(Cl)c1
→ 9%[46.1 µM] | 5.6% | x | -6% | x | x | 7%[46.1 µM] | -4%
- O=c1c2c3c(sc2n(CCN2CCOCC2)c(=O)n1Cc1ccco1)CCCCC3
→ u | -2.3% | 1% | -24% | 0% | u | u | u
- COc1cc(NC(=O)CN2CCN(c3ccccc3F)CC2)cc(OC)c1
→ u | -3.9% | -3% | -12% | -7% | -34% | 11% | 0%
- O=C(NCc1ccccc1)C1CCCN(c2ncnc3c2nc2n3CCCCC2)C1 (configuration not stated)
→ u | x | 3% | -17% | 5% | -8% | u | x
- Cc1ccc(OC(=O)c2cccc(S(=O)(=O)N3CCN(C)CC3)c2)c(Br)c1
→ 9% | x | u | -22% | -6% | -4% | 0% | x
- COc1ccc(C(=O)NCC(=O)OCC(=O)N2CCN(S(=O)(=O)c3ccccc3)CC2)cc1
→ 8% | -16% | -5% | -11% | 6% | -17% | -28% | -12%
- Cc1nc2c3cc(Cl)ccc3n(CCN3CCCCC3)c2s1
→ u | 1.0% | -13% | -26% | -1% | -3% | u | -10%
- COc1ccc(CN(C(=O)c2ccccc2Br)C2CCS(=O)(=O)C2)cc1 (configuration not stated)
→ x | x | -6% | -24% | -4% | -6% | x | x
- Cc1cccc(NC(=S)NCc2ccco2)c1C
→ -10% | -1.4% | 24% | 27% | -9% | 14% | u | 0%
- CCOC(=O)c1ccc(NC(=O)COC)cc1
→ 3% | 6.1% | -6% | 40%[activator] | 3% | -26% | -20% | -7%
- O=[N+]([O-])c1cc(S(=O)(=O)Nc2cccc(Cl)c2)ccc1N=Nc1c(O)[nH]c2ccccc12
→ 11µM* | x | 0% | 42%[activator] | 2% | 11% | u | x
- CN(CC(=O)Nc1ccc(F)cc1Cl)Cc1cccs1
→ 4% | x | -2% | -4% | 18% | -9% | -21%[46.1 µM] | x
- COc1ccc(CCNCC(C)c2ccccc2)cc1 (configuration not stated)
→ -7% | x | 1% | -7% | -14% | 1% | u | x
- O=C(Nc1nnc(-c2ccc(Cl)cc2)o1)c1ccc(N2C(=O)CCC2=O)cc1
→ -6% | 1.0% | 6% | -21% | -3% | 11% | u | 0%
- Cc1nn(CCCC(=O)Nc2ccccc2C(F)(F)F)c(=O)c2c1sc1ccccc12
→ 5%[46.1 µM] | -3.4% | x | -21% | x | x | u | 2%
- NS(=O)(=O)c1ccc(NC(=O)c2cc(-c3cccs3)nc3ccccc23)cc1
→ -18%[46.1 µM] | -2.8%&-0.4% | 6% | u | -9% | u | 1%[46.1 µM] | -15%&-26%
- Cc1ccc(-n2c(-c3ccc(Cl)cc3Cl)n[nH]c2=S)cc1
→ 7% | x | 8% | -18% | 2% | 3% | u | x
- N#CC1(NC(=O)COC(=O)c2ncc(Cl)c(Cl)c2Cl)CCCCC1
→ 24% | x | -2% | -17% | 7% | x | 18% | x
- O=C(O)c1cc(S(=O)(=O)Nc2ccc(OCc3ccccc3)cc2)ccc1Br
→ 8%[46.1 µM] | x | 7% | 22% | -8% | 28% | 14%[46.1 µM] | x
- O=C(NCCc1ccccn1)c1cccc(S(=O)(=O)N2CCCCCC2)c1
→ -18% | 0.1% | x | 19% | 11% | 14% | u | 13%
- O=S(=O)(NCC(c1ccco1)N1CCOCC1)c1ccc(F)cc1 (configuration not stated)
→ -11%[46.1 µM] | 0.8% | x | 2% | x | x | x | 8%
- C=CCOC(=O)C1=C(C)NC(=O)NC1c1ccc(O)cc1 (configuration not stated)
→ x | x | 1% | -7% | 17% | -6% | x | x
- COc1ccc(N=C2S/C(=C\c3ccc(C)o3)C(=O)N2CC(C)C)cc1
→ -20% | -4.0% | 9% | u | u | 1% | -11% | -13%
- Cc1cccc(C)c1NC(=O)NC1(C(=O)N2CCCCC2)CCCCC1
→ x | x | 2% | -5% | -6% | 5% | 9%[46.1 µM] | x
- Cn1c(N2CCOCC2)c(/C=N/O)c2ccccc21
→ -22% | x | 0% | -22% | 0% | -1% | 23%[46.1 µM] | x
- Cc1oc(C(C)(C)C)cc1C(=O)Nc1cccc(C(=O)O)c1
→ 11% | -0.4% | 17% | 28% | 5% | 12% | u | 0%
- CCCOc1ccc(N2C(=O)CC(N3CC=C(c4ccccc4)CC3)C2=O)cc1 (configuration not stated)
→ -13%[46.1 µM] | x | -6% | 7% | u | -6% | -8%[46.1 µM] | x
- COc1ccc(S(=O)(=O)N(CC(=O)NCC2CCCO2)c2ccc(Cl)cc2)cc1 (configuration not stated)
→ u | x | 1% | 41%[activator] | -5% | -4% | -25%[46.1 µM] | x
- COc1ccc(C(=O)Nc2ccc3[nH]ncc3c2)cc1
→ x | x | 0% | -11% | -2% | 14% | x | x
- O=C1NC(=O)C2(CCCC2)C(=O)N1
→ 0%[46.1 µM] | x | x | -11% | 6% | x | 5%[46.1 µM] | x
- C=CCNC(=S)Nc1nc2c(cc1C(=O)OCC)CCCC2
→ 29% | -3.0% | 8% | -3% | 12% | 13% | u | -17%
- O=C(NCCN1CCN(c2ccccc2)CC1)Nc1ccccc1Cl
→ x | x | 2% | -16% | -12% | 4% | x | x
- O=C(c1ccccc1F)N1CCC(N2CCCCCC2)CC1
→ -5% | 0.8% | u | -20% | -5% | 15% | -16%&-16% | 0%
- Cc1nc2ccccc2cc1C(=O)N/N=C/c1cccc([N+](=O)[O-])c1
→ -21% | -7.1% | 23% | -19% | 8% | 9% | -17% | 0%
- CC(=O)N1CCN(c2ccc(NC(=S)NC(=O)c3ccccc3)cc2)CC1
→ 0% | -1.2% | 3% | 1% | 0% | 11% | u | -10%
- Cc1ccc(-n2nc(C)c3c(C(F)(F)F)cc(-c4cccnc4)nc32)cc1Cl
→ 16%[46.1 µM] | 1.1% | x | -7% | x | x | -21%[46.1 µM] | -9%
- Cn1ncc(Cl)c1C(=O)Nc1cccc(Cl)c1
→ u | u | -23% | 10% | u | -6% | 12% | -18%
- CCn1c(SCC(=O)Nc2ccc(C(C)=O)cc2)nc2c([nH]c3ccccc32)c1=O
→ x | x | u | 14% | -13% | 4% | x | x
- O=C(/C=C/c1ccc(S(=O)(=O)NCc2ccco2)cc1)NCc1ccccc1Cl
→ u | -9.9% | 21% | -23% | 1% | 6% | u | 15%
- O=C(c1cc2c(s1)CCCC2)N1CCN(c2ccccc2)CC1
→ 12%[46.1 µM] | x | -4% | -18% | 11% | x | -5%[46.1 µM] | x

Reprinted from the listing, 9 compounds:
Under each structure: Lassa entry inh | Cruzain inh Det | SARS PLP yeast | StopGo reporter | RE007 growth inh | NS1 inh | Marburg entry inh | Cruzain inh noDet
- O=C(NCCN1CCN(c2ccccc2)CC1)Nc1ccccc1Cl
→ x | x | 2% | -16% | -12% | 4% | x | x
- O=C(c1ccccc1F)N1CCC(N2CCCCCC2)CC1
→ -5% | 0.8% | u | -20% | -5% | 15% | -16%&-16% | 0%
- Cc1nc2ccccc2cc1C(=O)N/N=C/c1cccc([N+](=O)[O-])c1
→ -21% | -7.1% | 23% | -19% | 8% | 9% | -17% | 0%
- CC(=O)N1CCN(c2ccc(NC(=S)NC(=O)c3ccccc3)cc2)CC1
→ 0% | -1.2% | 3% | 1% | 0% | 11% | u | -10%
- Cc1ccc(-n2nc(C)c3c(C(F)(F)F)cc(-c4cccnc4)nc32)cc1Cl
→ 16%[46.1 µM] | 1.1% | x | -7% | x | x | -21%[46.1 µM] | -9%
- Cn1ncc(Cl)c1C(=O)Nc1cccc(Cl)c1
→ u | u | -23% | 10% | u | -6% | 12% | -18%
- CCn1c(SCC(=O)Nc2ccc(C(C)=O)cc2)nc2c([nH]c3ccccc32)c1=O
→ x | x | u | 14% | -13% | 4% | x | x
- O=C(/C=C/c1ccc(S(=O)(=O)NCc2ccco2)cc1)NCc1ccccc1Cl
→ u | -9.9% | 21% | -23% | 1% | 6% | u | 15%
- O=C(c1cc2c(s1)CCCC2)N1CCN(c2ccccc2)CC1
→ 12%[46.1 µM] | x | -4% | -18% | 11% | x | -5%[46.1 µM] | x

Bioassay records from PubChem BioAssay.
